Source: PubChem BioAssay
AF4-AF9 inh = blocks AF4 peptide binding to human AF9 | P42568 | AlphaScreen, biotin-AF4 peptide binding to FLAG-AF9 | inhibition, % at 10 µM | actives 0.47% (n = 350,000);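 active means every replicate reaching a set inhibition limit, whatever the replicate mean, cut at about 25% in these data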;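 further: 0% = plate neutral control median and 100% = total signal loss; the record names both 10 and 1 µM as test concentration; the first replicate is given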
Target sequence (P42568 whole entry, looked up): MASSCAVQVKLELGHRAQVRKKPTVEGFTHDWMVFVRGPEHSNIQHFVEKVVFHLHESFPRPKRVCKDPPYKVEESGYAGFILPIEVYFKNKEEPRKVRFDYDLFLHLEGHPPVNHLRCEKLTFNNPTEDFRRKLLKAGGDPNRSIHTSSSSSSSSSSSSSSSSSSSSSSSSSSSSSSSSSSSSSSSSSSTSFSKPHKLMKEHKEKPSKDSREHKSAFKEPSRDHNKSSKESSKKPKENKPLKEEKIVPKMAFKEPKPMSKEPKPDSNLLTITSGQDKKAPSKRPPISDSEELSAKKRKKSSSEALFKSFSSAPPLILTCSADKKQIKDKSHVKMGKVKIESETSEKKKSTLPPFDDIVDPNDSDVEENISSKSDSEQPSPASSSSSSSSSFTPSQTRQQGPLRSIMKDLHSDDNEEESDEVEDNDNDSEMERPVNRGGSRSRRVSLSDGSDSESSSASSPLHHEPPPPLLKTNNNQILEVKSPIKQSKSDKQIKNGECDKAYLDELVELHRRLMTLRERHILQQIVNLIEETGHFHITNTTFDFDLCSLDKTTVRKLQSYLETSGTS
Ecoli rRNA inh = selective bacterial rRNA inhibition in E. coli. E. coli WT GFP vs humanized-ribosome RFP mutants, fluorescence, 24 h; stronger effect = lower value; DMSO median 0, no signal -100. GFP signal change (wild-type ribosome), % (test concentration not listed). actives 1.6% (n = 350,000);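 active means significant combined selectivity score with lowered wild-type GFP, culture density cut under 30%, mutant RFP and density less affected; inactive means any of these conditions unmet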; further: one replicate is shown; some compounds called inactive have numbers as strong as hits
FGF22 binding = binders of recombinant human FGF22 by thermal shift | SYPRO orange fluorescence; percent of sucrose octasulfate shift, DMSO zero | calls only at 9.99 µM | actives 1.5% (n = 340,000) | AID 651658;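 active means melting point raised past a set limit in the mean and every replicate; three in four hits are not shown here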
Target sequence (Q9HCT0 whole entry, looked up): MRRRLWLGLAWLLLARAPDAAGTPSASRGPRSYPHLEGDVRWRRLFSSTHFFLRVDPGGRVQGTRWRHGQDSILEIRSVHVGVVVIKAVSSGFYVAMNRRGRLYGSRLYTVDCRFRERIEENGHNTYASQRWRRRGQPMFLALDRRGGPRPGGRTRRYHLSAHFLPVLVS
Ecoli rRNA inh OD600 = further read-out of Ecoli rRNA inh, marked with its call; OD600 change, %; measured here: OD600 growth;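 optical density of the mix in the first replicate; 0 = DMSO median and -100 = no signal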
Ecoli rRNA inh RFP = recorded beside Ecoli rRNA inh, whose call it bears; RFP signal change, %; measured here: RFP humanized mutant strains;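 first replicate; 0 = DMSO median and -100 = no signal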
* hit, by the source's call; i = inactive; & = joins results of further samples. Some of the compounds tested; rates above refer to the full screens.

[1] Cc1noc(C)c1S(=O)(=O)N(C)C[C@H]1Oc2ccc(NC(=O)CCC(F)(F)F)cc2CC(=O)N([C@@H](C)CO)C[C@@H]1C
[2] O=C(NCC[C@@H]1CC[C@H](NC(=O)C2CCCC2)[C@H](CO)O1)Nc1ccc(Cl)cc1
[3] CCC(=O)N1CCCC(C)(C(=O)Nc2nccc3ccccc23)C1 (stereo not given)
[4] CCc1ccc([C@H]2C(C(=O)O)=C[C@@H](CC3CCCC3)N2S(=O)(=O)c2ccc(C)cc2)cc1
[5] CO[C@@H]1CN(C)C(=O)c2ccc(NC(=O)Nc3cc(F)ccc3F)cc2OC[C@H](C)NC[C@H]1C
[6] CCCOc1ccc(C2C(C(=O)c3ccco3)=C(O)C(=O)N2CCCn2ccnc2)cc1OC (stereo not given)
[7] C[C@@H]1CCCCO[C@@H](CN(C)CC2CCCCC2)[C@@H](C)CN([C@@H](C)CO)C(=O)c2cc(NC(=O)Nc3ccc(F)cc3)ccc2O1
[8] Cc1ccc(S(=O)(=O)N(C)C[C@@H]2OCCCC[C@@H](C)Oc3ccc(NS(C)(=O)=O)cc3C(=O)N([C@@H](C)CO)C[C@H]2C)cc1

Screen / compound no.	1	2	3	4	5	6	7	8
AF4-AF9 inh	0.4	11	1.1	-0.5	0.4	4.9	3.8	0.1
Ecoli rRNA inh	4	-50	6	-5	-4	-1	-11	-1
Ecoli rRNA inh OD600	1	-72	11	-16	-3	1	-42	-11
Ecoli rRNA inh RFP	-1.9	10	5.5	-2.9	1.1	-0.4	33	-0.1
FGF22 binding	i	i	i	i	i	i	i	i

[9] C[C@@H]1CN([C@@H](C)CO)C(=O)c2cc(NC(=O)c3ccncc3)ccc2O[C@@H](C)CCCCO[C@@H]1CN(C)S(=O)(=O)c1cn(C)cn1
[10] CCOc1ccc(C=NN2CCCCCC2)cc1OCC
[11] Cc1ccc(S(=O)(=O)N2CCCCC2)cc1NC(=O)C1CCN(C(=O)OC(C)(C)C)CC1
[12] C[C@H](CO)N1C[C@H](C)[C@H](CN(C)S(=O)(=O)c2ccc(Cl)cc2)OCc2ccccc2-c2c(n(C)c3ccccc23)C1=O
[13] COc1cccc(C2=CC(=O)C(C(C)(C)C)N2C(C)(C)C)c1 (stereo not given)
[14] C[C@H]1CN([C@@H](C)CO)C(=O)c2c(c3ccccc3n2C)-c2ccccc2CO[C@H]1CN(C)Cc1cccc(F)c1
[15] C[C@H]1CN([C@@H](C)CO)C(=O)c2cccc(N(C)C)c2O[C@@H]1CN(C)S(=O)(=O)c1ccc(Cl)cc1
[16] O=C(Nc1ccccc1)N1CCCCN2[C@H](C1)[C@@H](c1ccc(C#Cc3ccccc3)cc1)[C@@H]2CO

Screen / compound no.	9	10	11	12	13	14	15	16
AF4-AF9 inh	-0.6	7.2	-2.4	2.9&0.6	2.4	2.0	3.2	-3.8
Ecoli rRNA inh	2	4	-2	3&4	-50	-7&-2	-7	0
Ecoli rRNA inh OD600	7	14	0	3&10	-77	-17&-4	-13	-22
Ecoli rRNA inh RFP	-1.1	-0.5	3.0	2.4&-2.1	-17	-2.8&2.0	3.7	17
FGF22 binding	i	i	i	i	i	i	i	i

11 of these compounds, set out differently.
item | Compound | AF4-AF9 inh | Ecoli rRNA inh | Ecoli rRNA inh OD600 | Ecoli rRNA inh RFP | FGF22 binding
6 | CCCOc1ccc(C2C(C(=O)c3ccco3)=C(O)C(=O)N2CCCn2ccnc2)cc1OC (stereo not given) | 4.9 | -1 | 1 | -0.4 | i
7 | C[C@@H]1CCCCO[C@@H](CN(C)CC2CCCCC2)[C@@H](C)CN([C@@H](C)CO)C(=O)c2cc(NC(=O)Nc3ccc(F)cc3)ccc2O1 | 3.8 | -11 | -42 | 33 | i
8 | Cc1ccc(S(=O)(=O)N(C)C[C@@H]2OCCCC[C@@H](C)Oc3ccc(NS(C)(=O)=O)cc3C(=O)N([C@@H](C)CO)C[C@H]2C)cc1 | 0.1 | -1 | -11 | -0.1 | i
9 | C[C@@H]1CN([C@@H](C)CO)C(=O)c2cc(NC(=O)c3ccncc3)ccc2O[C@@H](C)CCCCO[C@@H]1CN(C)S(=O)(=O)c1cn(C)cn1 | -0.6 | 2 | 7 | -1.1 | i
10 | CCOc1ccc(C=NN2CCCCCC2)cc1OCC | 7.2 | 4 | 14 | -0.5 | i
11 | Cc1ccc(S(=O)(=O)N2CCCCC2)cc1NC(=O)C1CCN(C(=O)OC(C)(C)C)CC1 | -2.4 | -2 | 0 | 3.0 | i
12 | C[C@H](CO)N1C[C@H](C)[C@H](CN(C)S(=O)(=O)c2ccc(Cl)cc2)OCc2ccccc2-c2c(n(C)c3ccccc23)C1=O | 2.9&0.6 | 3&4 | 3&10 | 2.4&-2.1 | i
13 | COc1cccc(C2=CC(=O)C(C(C)(C)C)N2C(C)(C)C)c1 (stereo not given) | 2.4 | -50 | -77 | -17 | i
14 | C[C@H]1CN([C@@H](C)CO)C(=O)c2c(c3ccccc3n2C)-c2ccccc2CO[C@H]1CN(C)Cc1cccc(F)c1 | 2.0 | -7&-2 | -17&-4 | -2.8&2.0 | i
15 | C[C@H]1CN([C@@H](C)CO)C(=O)c2cccc(N(C)C)c2O[C@@H]1CN(C)S(=O)(=O)c1ccc(Cl)cc1 | 3.2 | -7 | -13 | 3.7 | i
16 | O=C(Nc1ccccc1)N1CCCCN2[C@H](C1)[C@@H](c1ccc(C#Cc3ccccc3)cc1)[C@@H]2CO | -3.8 | 0 | -22 | 17 | i

(continued)
[17] C[C@@H]1CN([C@H](C)CO)C(=O)c2cccc(NS(C)(=O)=O)c2O[C@H]1CN(C)S(=O)(=O)c1ccc(Cl)cc1
[18] COc1ccc(S(=O)(=O)N(C)C[C@H]2Oc3c(NS(C)(=O)=O)cccc3C(=O)N([C@@H](C)CO)C[C@@H]2C)cc1
[19] C[C@H]1CN([C@@H](C)CO)S(=O)(=O)c2ccc(C#Cc3ccccc3F)cc2O[C@@H]1CN(C)C(=O)Cc1ccncc1
[20] O=C(Cc1ccccc1)N1CC[C@@H]2[C@H](CO)Nc3ccc(C#Cc4ccccc4)cc3[C@@H]21
[21] CC(C)C#Cc1cnc2c(c1)C(=O)N([C@H](C)CO)C[C@H](C)[C@H](CN(C)C(=O)CCN1CCCCC1)O2
[22] COc1ccc(-c2ccc([C@@H]3[C@@H](CO)N4CCCCN(C(=O)NC(C)C)C[C@@H]34)cc2)cc1
[23] C[C@H]1CN([C@@H](C)CO)C(=O)c2cc(-c3ccc(F)cc3)cnc2O[C@H]1CN(C)Cc1ccccn1
[24] O=C(c1ccc(F)cc1)N(CC1CCC1)C[C@@H]1N[C@H](CO)[C@@H]1c1ccccc1

Screen / compound no.	17	18	19	20	21	22	23	24
AF4-AF9 inh	-1.9	-0.9	3.6	-3.0	-1.6	1.2	-4.6	1.4
Ecoli rRNA inh	-1	-3	2	-6	1	-3	2	0
Ecoli rRNA inh OD600	-3	3	-7	-6	5	1	1	0
Ecoli rRNA inh RFP	-0.8	-0.2	15	11	0.3	2.5	-1.3	-3.2
FGF22 binding	i	i	i	i	i	i	i	i

[25] CCC(=O)N1C[C@@H](O)COC[C@@H]2O[C@H](CC(=O)NCC3CCCCC3)CC[C@H]21
[26] CCNC(=O)C[C@H]1CC[C@@H](NS(=O)(=O)c2ccc(C)cc2)[C@H](CO)O1
[27] Nc1nc(COC(=O)CCC(=O)c2ccccc2)nc(Nc2ccccc2)n1
[28] O=C1CCCCC(=O)[C@H](O)C[C@H](c2ccccc2)O1
[29] CCOC(=O)C1(C)CCCN(C(=O)c2ccccc2F)C1 (stereo not given)
[30] CN(N=O)c1ccc(C=C2C=Cc3ccccc32)cc1
[31] O=C(C[C@H]1CC[C@@H](NC(=O)CN2CCOCC2)[C@H](CO)O1)NC1CCC1
[32] C[C@@H]1CN([C@@H](C)CO)C(=O)c2cc(NC(=O)Nc3ccccc3)ccc2O[C@H]1CN(C)S(=O)(=O)c1ccc(Cl)cc1

Screen / compound no.	25	26	27	28	29	30	31	32
AF4-AF9 inh	-1.4	-0.1	11	-1.3	-0.3	-3.2	-3.0	2.4
Ecoli rRNA inh	1	1	-1	3	16	-6	1	-6
Ecoli rRNA inh OD600	22	8	0	15	11	3	1	-14
Ecoli rRNA inh RFP	-0.7	-0.2	3.5	-0.2	-0.1	-0.7	-0.2	0.7
FGF22 binding	i	i	i	i	i	i	i	i

[33] O=C(C[C@@H]1CC[C@H]2[C@@H](COC[C@@H](O)CN2S(=O)(=O)c2cccc(F)c2)O1)NCCCN1CCOCC1
[34] COc1ccc2c3c([nH]c2c1)[C@@H](CO)N(CC1CCOCC1)CC31CN(CC2CCOCC2)C1
[35] C[C@H](CO)N1C[C@H](C)[C@@H](CN(C)Cc2ccc(C(F)(F)F)cc2)Oc2c(NC(=O)C3CCCCC3)cccc2C1=O
[36] C[C@H](NC(=O)C[C@@H]1CC[C@@H](NC(=O)C2CCC2)[C@H](CO)O1)c1ccccc1
[37] C[C@H]1CCCCO[C@H](CN(C)Cc2ccc3c(c2)OCO3)[C@@H](C)CN([C@@H](C)CO)C(=O)c2cc(NC(=O)CCCN(C)C)ccc2O1
[38] C[C@H]1CN([C@@H](C)CO)C(=O)c2cccc(NC(=O)Nc3ccc(C(F)(F)F)cc3)c2O[C@H]1CN(C)Cc1ccccc1
[39] CN(C)CC#Cc1ccc([C@H]2[C@@H](CO)N3CCCCN(C(=O)NC4CCCC4)C[C@@H]23)cc1
[40] CC1=C(C(=O)N2CCCCCC2)CC(CC(=O)NCCCCc2ccccc2)C(=O)N1Cc1ccccc1 (stereo not given)

Screen / compound no.	33	34	35	36	37	38	39	40
AF4-AF9 inh	-5.2	8.3	2.2	-3.3	4.4	3.6	1.4	-0.1
Ecoli rRNA inh	0	4	2	2	3	-8	2	-16
Ecoli rRNA inh OD600	-2	8	14	2	10	-23	-7	-40
Ecoli rRNA inh RFP	3.1	2.0	-8.1	-2.0	-1.7	1.0	0.0	1.5
FGF22 binding	i	i	i	i	i	i	i	i

[41] CNC(=O)c1ccccc1C1(O)c2ccccc2CCc2ccccc21
[42] COCCNC(=O)C1(C)CCCN(Cc2ccc(OCc3ccccc3)cc2)C1 (stereo not given)
[43] C[C@@H]1CN([C@H](C)CO)C(=O)Cc2cc(NC(=O)Nc3ccc4c(c3)OCO4)ccc2O[C@@H]1CN(C)Cc1ccc(C(=O)O)cc1
[44] O=C([C@H]1[C@H](CO)[C@H]2Cn3c(ccc(-c4cccnc4)c3=O)[C@@H]1N2Cc1cccnc1)N1CCOCC1
[45] COc1ccccc1C(=O)N1CCN(C(=O)c2oc3c(C)c(C)ccc3c2C)CC1
[46] CCCNC(=O)C1(C)CCN(C(=O)c2ccccc2OC)C1 (stereo not given)
[47] Cc1noc(C)c1NC(=O)N(C)C[C@@H]1Oc2ncc(C#CC3CCCC3)cc2C(=O)N([C@H](C)CO)C[C@@H]1C
[48] COc1ccc(CN(C)C[C@@H]2OCCCC[C@H](C)Oc3ccc(NC(=O)C4CCCCC4)cc3C(=O)N([C@@H](C)CO)C[C@@H]2C)cc1

Screen / compound no.	41	42	43	44	45	46	47	48
AF4-AF9 inh	1.8	1.4	-1.5	-5.8	3.9	-1.9	-0.4	8.8
Ecoli rRNA inh	-9	2	5	-1	-25	10	3	1
Ecoli rRNA inh OD600	-18	3	8	2	-56	13	5	-2
Ecoli rRNA inh RFP	-0.1	0.9	-1.7	-4.1	-13	-11	-0.5	-0.5
FGF22 binding	i	i	i	i	i	i	i	i

[49] CO[C@@H]1CN(C)C(=O)c2cc(NC(=O)c3ccccc3)ccc2OC[C@@H](C)N(C(C)=O)C[C@H]1C
[50] O=C(NCc1cccs1)c1cccc2c(-c3ccc(F)c(F)c3)coc12
[51] CO[C@H]1CN(C)C(=O)c2cc(NS(=O)(=O)c3ccc(Oc4ccccc4)cc3)ccc2OC[C@@H](C)NC[C@H]1C
[52] O=C(NCC[C@@H]1CC[C@H](NC(=O)C2CCCC2)[C@H](CO)O1)c1cc(Cl)cc(Cl)c1
[53] CN1c2ccc(-c3cccc(F)c3)cc2[C@@H]2[C@@H](CCN2S(=O)(=O)c2cccc(F)c2)[C@H]1CO
[54] O=C(N[C@H]1CC[C@@H](CCNS(=O)(=O)Cc2ccccc2)O[C@H]1CO)c1ccccc1F
[55] NC(Cc1ccc(C(F)(F)F)cc1)c1csc(Nc2ccccn2)n1 (stereo not given)
[56] C[C@@H]1CN([C@H](C)CO)C(=O)c2cc(NC(=O)Cn3cnnn3)ccc2O[C@@H]1CN(C)CC1CC1

Screen / compound no.	49	50	51	52	53	54	55	56
AF4-AF9 inh	-1.4	0.7	-2.7	0.0	0.6	-1.8	-0.7	0.8
Ecoli rRNA inh	2	-4	-1	-6	-1	2	-63	1
Ecoli rRNA inh OD600	5	-21	-7	-4	8	3	-82	2
Ecoli rRNA inh RFP	4.0	-2.2	3.2	2.3	3.8	1.2	-19	-1.0
FGF22 binding	i	i	i	i	i	i	i	i
